High-throughput results (PubChem)
LANA-nucl inh – inhibitors of KSHV LANA-nucleosome binding, primary screen, biochemical, fluorescence polarization, FITC-LANA1-23, chicken nucleosomes | FITC-LANA1-23 / chicken nucleosome fluorescence polarization; active compounds read low | z-score (test concentration not listed) | 0.3% of 51,000 active | AID 720717, 2013;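 active = both repeat wells score below -2 in polarization z-score versus plate sample wells, excluding overly bright wells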;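 note: 100 nL library stock added to about 30 µL; numbers are from one replicate; some results filed as inactive read as strong as hits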
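Assay system: FITC-LANA peptide and chicken nucleosomes; input: 240 nM purified chicken nucleosomes (480 nM peptide binding sites), final; also added: 50 nM FITC-LANA1-23 probe; medium: TEN-BT buffer, pH 7.5; doses: pin-transferred compound, 100 nL; times: 10–45 min, room temperature; technique: fluorescence polarization; replication: duplicates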
BasE inh – BasE siderophore enzyme inhibitors, primary screen, biochemical, Acinetobacter baumannii ATCC 17978, fluorescence polarization; 0.1% of 84,000 active; purified BasE, fluorescence polarization binding displacement; AID 485350, 2010; inhibition, % (no concentration beside the values);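 active = both replicates above 25% with normal brightness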;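 note: 0% = negative plate control signal and 100% = positive plate control signal; stock transfer was 100 nL into about 30 µL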
* hit, by the source's call; · = not tested or not shown; & = joins results of further samples. A portion of the library; count on the stated rates, not on these rows.

SMILES	LANA-nucl inh	BasE inh
Cc1ccccc1CN(C)CC(O)COCc1ccc2c(c1)OCO2 (configuration not stated)	·	-1.3
Cc1cc(C)nc(N(C#N)C(=S)N(C)C)n1	0.608	0.2
COCc1[nH]nc2c1C(c1ccc(F)c(F)c1)C(C#N)=C(N)O2 (configuration not stated)	1.13	-0.9
CCC(=O)Nc1ccc(-c2nc3ccccc3o2)cc1	-0.0255	-0.1
O=C(NC1=NN(c2ccccc2)C(=O)C1)c1ccc(Br)s1	·	24.8
Cc1cc(C)nc(Nc2ncc(O)n2-c2ccc(Cl)cc2)n1	0.299	0.4
CC(C)(C)NS(=O)(=O)c1ccc(/C=C/C(=O)O)cc1	0.929	-0.3
CN1C(=O)CC(Nc2cccc3cccc(N)c23)C1=O (configuration not stated)	-0.175	1.6
O=S(=O)(Nc1ccon1)c1cc(F)ccc1F	-0.415	-0.9
CCOC(=O)N1CCC(=NNC(=S)Nc2ccc(Cl)cc2Cl)CC1	·	-0.3
C=CCN1CC(c2nc3ccccc3n2C(C)c2ccccc2)CC1=O (configuration not stated)	-0.627	0.9
O=C(Cc1c(Cl)cccc1Cl)NCC(c1ccco1)N1CCCC1 (configuration not stated)	·	0.6

Part of the list above, set out differently:
| Molecule | LANA-nucl inh | BasE inh |
| --- | --- | --- |
| CC(C)(C)NS(=O)(=O)c1ccc(/C=C/C(=O)O)cc1 | 0.929 | -0.3 |
| O=C(Cc1c(Cl)cccc1Cl)NCC(c1ccco1)N1CCCC1 (configuration not stated) | · | 0.6 |
| COCc1[nH]nc2c1C(c1ccc(F)c(F)c1)C(C#N)=C(N)O2 (configuration not stated) | 1.13 | -0.9 |
| CN1C(=O)CC(Nc2cccc3cccc(N)c23)C1=O (configuration not stated) | -0.175 | 1.6 |
| Cc1cc(C)nc(Nc2ncc(O)n2-c2ccc(Cl)cc2)n1 | 0.299 | 0.4 |

(continued)
SMILES	LANA-nucl inh	BasE inh
CCS(=O)(=O)n1nc(-c2ccc(OC)cc2OC)cc1N	-0.0955	-0.4
Cc1nnc(Oc2ccccc2C#N)c2ccccc12	·	0.1
CN1C(=O)C(=O)/C(=C(/O)c2ccccc2)C1c1ccccc1 (configuration not stated)	0.365	1.2
CCOC(=O)c1cc(CC)sc1NC(=O)C=C(C)C	-0.368	-1.7
C[C@@H](C(=O)N=c1sc2ccccc2n1C)N1C(=O)C2CC=CCC2C1=O (some centres not stated)	·	-1.4
Cc1ccccc1S(=O)(=O)CC(SC#N)c1ccccc1 (configuration not stated)	-0.065	1.1
Cc1[nH]ccc2c1[nH]c1cc(=O)ccc12	0.497&0.729	-0.6&-1.7
S=c1[nH]nc(-c2ccc[nH]2)o1	·	-1.2
COc1cccc(C2c3c(-c4ccccc4O)n[nH]c3C(=O)N2CCc2ccccc2)c1 (configuration not stated)	0.132	2.0
COC(=O)c1cn(CC(=O)Nc2ccc(F)cc2)c2ccccc12	-0.496	0.1
CC(C)Cn1c(N)cc(=O)n(C)c1=O	·	0.3
O=C(N=C1c2ccccc2CN1c1ccc2c(c1)OCO2)c1ccco1	·	0.2
CC1CCCN(c2ccc(C(=O)NCCc3ccccc3)cn2)C1 (configuration not stated)	-0.041	-0.5
Nn1c(-c2cccs2)nc2sc3c(c2c1=O)CCCC3	·	-9.3
COCCn1c(C)cc(C(=O)CSC2=Nc3ccccc3CS2)c1C	·	-1.4
O=C(N/N=C/c1cccnc1)c1[nH]nc2c1CCc1ccccc1-2	0.0035	2.0
N#CC(C(=O)c1ccc(F)cc1)c1nc2ccccc2[nH]1 (configuration not stated)	1.21	-0.8
O=C(Nc1ccc2c(c1)OCO2)c1cnn2c(C(F)(F)F)cc(-c3ccco3)nc12	-0.764	-0.8
O=C(O)c1ccc(N/N=C/C2=C(N3CCOCC3)C(=C\c3ccccc3)/CC2)cc1	·	-12.6
O=C(O)CCCNC1C=CS(=O)(=O)C1 (configuration not stated)	-0.233	-0.1
CCNC(=O)/C(=N\O)c1ccccc1	·	0.5
CCOc1cc2c(cc1/C=C(\C#N)c1ccc(C(F)(F)F)cc1)OCO2	·	-0.4
N#CCCn1nc(-c2ccccc2)c2c1Nc1ccccc1NC2c1ccc(F)cc1 (configuration not stated)	·	0.4
O=C(COC(=O)c1ccc(N2CCCC2=O)cc1)c1ccc(OC(F)F)cc1	·	1.7

A different layout for some results above:
Second line of a record: LANA-nucl inh | BasE inh
CCC(=O)Nc1ccc(-c2nc3ccccc3o2)cc1
 : -0.0255 | -0.1
COc1cccc(C2c3c(-c4ccccc4O)n[nH]c3C(=O)N2CCc2ccccc2)c1 (configuration not stated)
 : 0.132 | 2.0

Next part:
SMILES	LANA-nucl inh	BasE inh
NCc1ccc(CN2CCCCCC2)cc1	-0.417	-2.5
CCOC(=O)N1CCN(c2nc(C)c3c(n2)CC(c2ccco2)CC3=O)CC1 (configuration not stated)	-0.655	3.4
CC(C)[C@H](NC(=O)c1cccc(S(=O)(=O)N2CCCC2)c1)c1nc2ccccc2[nH]1	·	-0.5
O=C(C1CCCN(S(=O)(=O)c2ccccc2)C1)N1CCN(c2ccc(F)cc2)CC1 (configuration not stated)	0.209	0.2
C/[N+]([O-])=C\c1ccc(C#N)cc1	·	1.3
CCCCn1c(N)c(N(C)C(=O)CSc2nnc(-c3ccco3)n2CC)c(=O)[nH]c1=O	·	1.9
CC[n+]1ccc(C)c2ccccc21	·	1.0
COc1cc2c(cc1OC)C(Nc1nc(-c3ccccc3)cs1)=NC(C)(C)C2	·	1.1
CN(Cc1ccccc1Cl)C(=O)C1CC(=O)N(c2ccc3c(c2)OCCO3)C1 (configuration not stated)	·	0.6
CCCn1c(SCn2nnc3ccccc3c2=O)n[nH]c1=O	·	-0.4
Cc1cc(NC(=O)c2cccc(S(=O)(=O)N(C)C)c2)n(-c2ccccn2)n1	·	0.3
CCCCC(=O)Nc1ccccc1CC	0.234	-1.5
CCOC(=O)c1sc(NC(=O)Cc2n[nH]c(=O)c3ccccc23)cc1C	·	-0.2
CCc1ccc(/C=C2\C(=O)N(Cc3ccco3)C(C)=C2C(=O)OC)cc1	0.278	3.5
CCCCCNc1nc(C)c(C(=O)OCC)s1	·	1.6
Cc1ccc2cc(CCNS(C)(=O)=O)c(=O)[nH]c2c1	1.31	-4.3
Clc1ccc(-c2nnc3ccccn23)cc1	1.02	-2.9
CCCCn1c(CN2C(=O)NC3(CCCCC3C)C2=O)nc2cc(S(=O)(=O)N3CCOCC3)ccc21 (configuration not stated)	·	0.5
CC1CCCCN1S(=O)(=O)c1ccccc1C(=O)N1CCCCCC1 (configuration not stated)	·	-0.3
COc1ccc(-n2ncc3c(N4CCc5ccccc54)ncnc32)cc1	-0.594	2.7
S=C1OC(c2ccccc2)=C/C1=C\N1CCCCC1	·	0.3
Cc1ccc(-n2c(C)cc(C(=O)COc3ccc(C#N)cc3)c2C)cc1	·	1.1
O=C(CN1C(=O)c2ccccc2C1=O)NCC1COC2(CCCCC2)O1 (configuration not stated)	-0.472	1.5
CCN(CCO)C(=O)NC1CC(=O)N(c2ccc(C)cc2)C1 (configuration not stated)	-1.51	1.8

Record cards, from the list above:
`Cc1ccc(-n2c(C)cc(C(=O)COc3ccc(C#N)cc3)c2C)cc1` in the list: LANA-nucl inh: ·; BasE inh: 1.1
`CCOC(=O)c1sc(NC(=O)Cc2n[nH]c(=O)c3ccccc23)cc1C` in the list: LANA-nucl inh: ·; BasE inh: -0.2

Following part:
SMILES	LANA-nucl inh	BasE inh
Cc1ccsc1CCNS(=O)(=O)c1c(C(=O)N2CCCC2)c(C)n(C)c1C	-0.759	1.2
CN(C)CCNC(=O)c1ccc(-n2c(=S)[nH]c3ccccc3c2=O)cc1	0.709	-1.9
O=S(=O)(/N=C(\OC1CCCCC1)c1ccccc1)c1ccccc1	·	2.2
Cc1ccc(CS(=O)Cc2ccc(C(=O)NCC(C)c3ccccc3)o2)cc1 (configuration not stated)	0.176	-1.3
COc1ccc(CNC(=O)C2CCCN(c3ncnc4c3nc3n4CCCCC3)C2)cc1 (configuration not stated)	1.54	-1.5
CC1CC(C)(C)CC2(C1)NC(=O)N(CC(O)c1ccccc1)C2=O (configuration not stated)	·	3.1
O=c1cc(O)nc2ccccn12	0.528	-2.5
COc1ccc(-n2nnnc2SCC(=O)NCC(C)C)cc1	·	-2.7
Oc1cccc(Oc2ccccc2)c1	-0.0415	6.5
COc1ccc(N2CC(NC(=O)N(CCO)Cc3ccccc3)CC2=O)cc1 (configuration not stated)	-2.09	0.1
O=c1c2ccccc2nc2c3ccccc3c(SCc3ccco3)nn12	·	1.1
CCOc1cc2c(cc1CCC(=O)O)CCC2	-0.022	-0.6

In a second layout: two of the compounds above.
Molecule,LANA-nucl inh,BasE inh
CC1CC(C)(C)CC2(C1)NC(=O)N(CC(O)c1ccccc1)C2=O (configuration not stated),·,3.1
O=c1cc(O)nc2ccccn12,0.528,-2.5

Next part
SMILES	LANA-nucl inh	BasE inh
CCN(Cc1ccncc1)C(=O)C(CO)c1ccccc1 (configuration not stated)	0.713&1.05&0.486&0.428	-0.3&0.1
COC(=O)COc1ccc(Oc2nc(SC)nc(N(C)C)n2)nn1	·	-1.0
COc1cccc(CCN2CCC(CNC(=O)Cn3c(=O)oc4ccccc43)CC2)c1	0.545	0.2
Cc1cc2ncn(S(=O)(=O)N3CCOCC3)c2cc1C	0.832	-3.1
N#CCCn1cc(/C=C/C(=O)Oc2cccc(-n3cnnn3)c2)c2ccccc21	·	-1.8
CCOC(=O)N1CCN(C(=O)c2ccccc2NC(=O)c2cccc(C)c2)CC1	-0.734	0.5
CNC(=O)NNc1ccc(-c2csnn2)cc1	1.49	-4.5
CN(C)C(=S)SCC(=O)Nc1ccccc1O	0.0425	-1.2
O=C(Nc1nnc(C2CC2)s1)c1ccc2ncsc2c1	·	0.5
C=CCOc1cccc(/C=C2/C(=O)NC(=S)N2C(C)=O)c1	-0.639	0.6
C=CCN1C(=O)C(CC(=O)Nc2ccccc2)SC1=Nc1ccc(O)cc1 (configuration not stated)	·	0.8
COc1ccccc1NC(=O)CCC(=O)N1CCSc2ccccc21	-0.328	-1.2
CC(C)(C)c1ccc(C(=O)n2cc(Br)cn2)cc1	-0.0055	1.9
CC(C)N=Cc1nc(-c2ccccc2)[nH]c1Cl	-1.57	·
CSCC(C(=O)O)N1C(=O)c2ccc(C(=O)O)cc2C1=O (configuration not stated)	·	0.5
COc1ccc(-c2ocnc2C(=O)NCCN2CCCCCC2)cc1	-1.41	-3.7
CC1Sc2ccccc2NC(=O)C1C (configuration not stated)	0.289	-0.2
O=C(CSc1ncccn1)N(C1CCCCC1)C1CCCCC1	·	1.0
COc1ccc(C(=O)Cc2nc3ccccc3[nH]2)cc1OC	·	-5.6
O=C(Oc1ccc(-c2nnco2)cc1)c1ccccc1F	·	2.1
Cc1cc(N2CC34C=CC(O3)C(C(=O)O)C4C2=O)no1 (configuration not stated)	-0.509	-1.8
O=c1[nH]nc(SCc2cccc(Oc3ccccc3)c2)c(=O)[nH]1	0.295	-1.4
CCOC(=O)c1cc(C#N)c(C)nc1N1CCN(S(=O)(=O)c2ccccc2)CC1	·	2.3
COc1ccccc1NC(C)=O	0	0.7
Cc1cccc(OC(C)C(=O)N2CCCCC2)c1 (configuration not stated)	0.595	3.4
O=C(c1ccc(Br)cc1)c1cc2ccccc2o1	-0.395	1.4
CCCNC(=O)Nc1nc2ccc(OC)cc2s1	0.571	-3.0
COC(=O)c1ccc(OC(=O)N2CCOCC2)cc1	0.427	1.2
CS(=O)(=O)Nc1ccc2c(c1)OCO2	0.399	-2.7
NC(=O)Cn1nc2c3c(cccc3c1=O)-c1ccccc1-2	-0.37	-1.2
CC1CN(CC(=O)c2c(N)n(Cc3ccccc3)c(=O)n(C)c2=O)CC(C)O1 (configuration not stated)	·	0.3
CCCn1c(SCC(=O)NC(=O)NCc2ccccc2)n[nH]c1=O	·	-0.7
C=CCN1C(=O)/C(=C2/Sc3ccccc3N2CC)SC1=S	·	1.6
CCC(=O)N1N=C(c2ccccc2)CC1c1cc2cc(OC)ccc2nc1Cl (configuration not stated)	·	-0.3
CN(C)C(CNC(=O)C1(c2ccccc2)CC1)c1ccco1 (configuration not stated)	·	-0.6
CC(=O)Nn1nc2c(n1)C(=NNC(=O)c1ccccc1)c1nn(NC(C)=O)nc1C2=NNC(=O)c1ccccc1	0.26	3.0
O=C(Cc1cccs1)N1CCC(Cc2ccccc2)CC1	0.633	0.0
COC(=O)COc1ccc(S(=O)(=O)Nc2ccc(OC)cc2)cc1C	-1.27	-1.5
CC(C)(C)c1ccc(C(=O)NN)s1	·	1.1
CN(C(=O)c1c2c(nc3ccccc13)C(=O)N(C1CCCCC1)C2)C1CCCCC1	-0.228	-2.4
N#CCOc1ncn(-c2ccccc2)n1	-0.192	·
CO[C@H]1[C@@H]([C@@]2(C)O[C@@H]2CC=C(C)C)[C@]2(CC[C@H]1OC(=O)/C=C/C=C/C=C/C=C/C(=O)O)CO2	-0.372	·
CNC(=O)CN1CCC(c2nc3ccccc3[nH]2)CC1	0.113	-0.5
CCOc1ccc(C(CC(=O)O)NC(C)=O)cc1 (configuration not stated)	0.183	5.1
CC(C)n1nc(C(N)=O)c2ccccc2c1=O	·	-0.1
